Source: PubChem BioAssay (ICCB-Longwood Screening Facility, Harvard Medical School)
Polio RdRp inh: inhibitors of poliovirus RNA polymerase binding and polymerization; P03300; poliovirus polymerase elongation, fluorescence polarization; active compounds read low; % elongation, % (compound at 16.7 µg/mL); 150,000 compounds, 0.66% hits; in the data active = % elongation below about 90%; note: some results filed as inactive read as strong as hits
MenB inh: inhibitors of Mycobacterium tuberculosis MenB enzyme | MenB enzyme assay, absorbance read-out; some hits fall short of the stated cut | inhibition, %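 (about 12 µg/mL by stock and volumes)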 | 100,000 compounds, 0.43% hits;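 active = mean of two replicates above 30%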;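 note: 0% = no compound and 100% = wells with inactive enzyme; the first replicate is given; strong numbers were not always called active; inactives centre near -10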
Target sequence (P9WNP5 whole entry, looked up): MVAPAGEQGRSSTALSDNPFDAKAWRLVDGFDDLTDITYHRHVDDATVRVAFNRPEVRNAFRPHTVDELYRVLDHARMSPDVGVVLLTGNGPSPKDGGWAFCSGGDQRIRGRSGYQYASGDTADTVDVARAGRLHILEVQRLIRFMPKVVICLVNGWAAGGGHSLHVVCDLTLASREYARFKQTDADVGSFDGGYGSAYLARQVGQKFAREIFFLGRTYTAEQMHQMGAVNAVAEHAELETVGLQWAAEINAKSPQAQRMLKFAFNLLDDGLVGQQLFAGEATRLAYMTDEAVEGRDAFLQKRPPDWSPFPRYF
MbtI inh: MbtI salicylate synthase inhibition | AID 493033 | 100,000 compounds, 0.89% hits | purified MbtI enzyme, fluorescence intensity read-out | inhibition, %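 (about 17 µg/mL by stock and volumes)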 | P9WFX0;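 active = above 50% in both replicates, above 80% if mildly self-fluorescent; inactive = the rest, strongly fluorescent compounds included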;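 note: 0% = mean of negative and 100% = mean of positive controls; one replicate is shown; some compounds called inactive have numbers as strong as hits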
Target sequence (P9WFX0 whole entry, looked up): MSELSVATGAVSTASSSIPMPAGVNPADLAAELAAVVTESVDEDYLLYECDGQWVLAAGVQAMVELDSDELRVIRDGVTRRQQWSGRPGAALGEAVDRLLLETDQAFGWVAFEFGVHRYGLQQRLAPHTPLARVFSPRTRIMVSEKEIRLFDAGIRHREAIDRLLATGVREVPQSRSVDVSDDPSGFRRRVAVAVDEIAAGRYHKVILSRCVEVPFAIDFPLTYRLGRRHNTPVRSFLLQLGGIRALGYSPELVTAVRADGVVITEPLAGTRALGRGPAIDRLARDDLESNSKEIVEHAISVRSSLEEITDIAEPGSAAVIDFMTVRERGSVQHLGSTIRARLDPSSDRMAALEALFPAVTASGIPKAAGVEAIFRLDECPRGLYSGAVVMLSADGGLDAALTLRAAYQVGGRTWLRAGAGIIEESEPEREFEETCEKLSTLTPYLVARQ
Polio RdRp inh intensity: second read-out of Polio RdRp inh, no call of its own (marks repeat the call); % elongation; measured here: total intensity read-out; formula for this scale not given here;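 total fluorescence in place of polarization; lower means less elongation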
Starred values were filed as active, the others as inactive; . = no result given; & = joins results of further samples.

SMILES	Polio RdRp inh	Polio RdRp inh intensity	MenB inh	MbtI inh
COc1cc(-c2nnc(COC(=O)C(O)(c3ccccc3)c3ccccc3)o2)cc(OC)c1OC	99	101	-9	3
c1ccc(CNc2cc(-c3ccccc3)nc3nncn23)cc1	102	96	1	-6
NC(=S)N1CCOCC1	101	97	12	13
Cc1ccc(N2C(=O)c3ccccc3C2C(=O)c2ccc(O)cc2O)cc1 (configuration not stated)	102	106	-40	-14
COc1ccc(C(=O)NCCS(=O)(=O)N2CCc3ccccc3C2)cc1OC	108	112	-20	4
N#CC1=C(n2ncnc2-c2ccc3c(c2)OCO3)SC2CCCCCC12 (configuration not stated)	100	102	-18	-2
Cc1cc(Cl)ccc1OC(C)C(=O)N1CCN(c2ccccc2F)CC1 (configuration not stated)	102	103	-9	3
O=C(NC(=O)C1CCCCC1)Nc1ccc(Cl)cc1	103	101	10	23
CC1=NCCc2c1[nH]c1cc(O)ccc21	72&63	185&142	-8&-13	161&84
O=C(Cn1nnc2ccccc21)Nc1ccccc1Cl	102	107	.	-14
O=C(Cn1nc(-c2ccc(Cl)cc2)ccc1=O)NCc1ccco1	103	105	5	4
Cc1ccc(CNC(=O)c2cc(=O)[nH]c3ccc(Br)cc23)cc1	101	103	0	13
O=C(/C=N/O)Nc1cccnc1	102	99	-12	-2
c1cnc2nc(CN3CCCC3)cn2c1	103	115	1	114
Cc1ccc(CN2C(=O)C(O)(c3c(C)[nH]c4ccccc34)c3cc(Br)ccc32)cc1 (configuration not stated)	99	95	-11	-7
O=C(O)C1CCC(CNS(=O)(=O)c2ccc(Br)cc2)CC1 (configuration not stated)	100	103	1	-9
COc1ccccc1NC(=O)N1CCCSc2ccccc21	.	.	-31	6
CCOC(=O)NN=C1CC(C)(C)NC(C)(C)C1	102	104	-7	-6
Cc1ccc(OCCNC(=O)c2sc(C)nc2C)cc1	103	102	8	-18
CC(NC(=O)CN1CCN(Cc2ccc(Cl)cc2)C1=O)c1ccc2c(c1)OCCO2 (configuration not stated)	98	101	-1	-17

Single records, from the list above:
COc1ccccc1NC(=O)N1CCCSc2ccccc21 in the list: Polio RdRp inh = .; Polio RdRp inh intensity = .; MenB inh = -31; MbtI inh = 6
COc1ccc(C(=O)NCCS(=O)(=O)N2CCc3ccccc3C2)cc1OC in the list: Polio RdRp inh = 108; Polio RdRp inh intensity = 112; MenB inh = -20; MbtI inh = 4
Cc1ccc(OCCNC(=O)c2sc(C)nc2C)cc1 in the list: Polio RdRp inh = 103; Polio RdRp inh intensity = 102; MenB inh = 8; MbtI inh = -18

Back to the main list; the 4 compounds before the break are reprinted first.
SMILES	Polio RdRp inh	Polio RdRp inh intensity	MenB inh	MbtI inh
COc1ccccc1NC(=O)N1CCCSc2ccccc21	.	.	-31	6
CCOC(=O)NN=C1CC(C)(C)NC(C)(C)C1	102	104	-7	-6
Cc1ccc(OCCNC(=O)c2sc(C)nc2C)cc1	103	102	8	-18
CC(NC(=O)CN1CCN(Cc2ccc(Cl)cc2)C1=O)c1ccc2c(c1)OCCO2 (configuration not stated)	98	101	-1	-17
c1nc(N2CCN(Cc3ccc4c(c3)OCO4)CC2)c2ccsc2n1	99	107	7	-15
CCC(Sc1nc(Nc2ccc(F)cc2)c2ccccc2n1)C(=O)Nc1ccc2c(c1)OCO2 (configuration not stated)	106	98	-21	16
CC(C)NC(=O)CN1CCN(c2ccc(F)cc2)CC1	105	101	-18	-2
CC1(C)CN=C(Nc2ccc(C(F)(F)F)cc2)S1	103	104	-17	-8
CSc1nsc(SC)c1C(=O)N1CCN(S(=O)(=O)c2ccc(C)cc2)C1C(C)C (configuration not stated)	102	101	1	12
CC(C(=O)NCCN1CCOCC1)(c1ccccc1)c1ccccc1	106	109	-5	.
OC1(c2ccc(F)cc2)CSC(=Nc2cccnc2)N1Cc1ccco1 (configuration not stated)	105	110	-30	-10
COC(=O)c1nnn(CC(=O)Nc2ccc(C(C)C)cc2)c1C(=O)OC	98	103	9	-3
Cc1cccc(CC(=O)Nc2ccc3c(c2)OCCO3)c1	102	100	-17	-10
CCc1ccc(C(=O)Oc2ccc(C#N)cc2)cc1	103	108	-16	-1

3 compounds already listed, ordered by molecular weight, low to high.
SMILES	Polio RdRp inh	Polio RdRp inh intensity	MenB inh	MbtI inh
CCc1ccc(C(=O)Oc2ccc(C#N)cc2)cc1	103	108	-16	-1
CC(C)NC(=O)CN1CCN(c2ccc(F)cc2)CC1	105	101	-18	-2
COC(=O)c1nnn(CC(=O)Nc2ccc(C(C)C)cc2)c1C(=O)OC	98	103	9	-3

Going on with the list:
SMILES	Polio RdRp inh	Polio RdRp inh intensity	MenB inh	MbtI inh
CCc1ccc(-c2nc(CS(=O)CC(=O)NCCc3ccccc3)c(C)o2)cc1 (configuration not stated)	99	101	1	-12
CC1CCCC(C)N1/N=C/c1ccc(O)cc1 (configuration not stated)	109	112	-1	12
CCOC(=O)c1c(-c2cccs2)csc1/N=C/c1c(O)n(C)c2ccccc12	104	100	14	5
NC(=O)/C(=C/c1ccc(Cl)cc1)NC(=O)c1ccccc1	106	114	-10	.
CNC(=S)Nc1cc2oc3ccccc3c2cc1OC	102	105	-48	6
CC1(C)CC(Nc2ccc(Cl)cc2)CCO1 (configuration not stated)	100	103	19	-8
CN1CCC(OC(=O)Cc2ccccc2)CC1	107	110	-2	.
Cc1ccccc1NC(=O)COC(=O)c1ccccc1	100	105	4	16
CCc1cc(C(=O)COc2ccc(Cl)cc2)c(O)cc1O	102	102	-27	5
CCn1cc(C(=O)N2CC(C)CC(C)C2)c(=O)c2cc(S(=O)(=O)N3CC(C)CC(C)C3)ccc21 (configuration not stated)	103	105	-5	3
c1ccc(-n2ncc3c(SCC4CCCCO4)ncnc32)cc1 (configuration not stated)	104	102	-7	-14
Cc1nc(CC(=O)N=Nc2c(O)[nH]c3ccc(F)cc23)cs1	100	108	-30	3
CCOC(=O)/C=C1\NC2(CCCC2)Cc2cc(OC)c(OC)cc21	102	103	-37	-7
Cc1cc(C(=O)NCc2ccc(Cl)cc2)on1	99	102	-19	-7
COc1ccc(C)cc1CN(C)c1ncnc2ccccc12	98	105	-11	8
CCOC(=O)c1cc(-c2ccc(S(=O)(=O)N(CC)c3cccc(C)c3)s2)on1	102	104	-2	-9
Cc1cc(C(=O)CSc2ncnc3c2cnn3-c2ccccc2)c(C)n1C1CCS(=O)(=O)C1 (configuration not stated)	105	111	0	-7
Oc1ccc(C=Nc2ccc(N=Cc3ccc(O)cc3)c(Cl)c2)cc1	101	103	.	2
COC(=O)Nc1c(C)nc2n(C)c3ccccc3n12	97	95	-18	70
Cc1ccc(-c2n[nH]c(CNC(=O)NCc3ccccc3)n2)cc1	101	103	13	1
CN(c1cc(C(F)(F)F)ccn1)N1C(=O)c2ccccc2C1=O	101	112	5	-4
O=C(O)C1C2C=CC(C2)C1C(=O)NCc1ccncc1 (configuration not stated)	104	107	-7	1
NC(=O)C1CCN(C(=O)C2(c3cccs3)CCOCC2)CC1	102	101	14	17
O=C(CSc1nnc(NC2CC2)s1)NC(=O)c1ccccc1	103	107	-26	-3
O=C(Cn1cc(C(F)(F)F)ccc1=O)NCC1COc2ccccc2O1 (configuration not stated)	99	101	7	9
CCn1ccc(=O)[nH]c1=O	99	100	-18	27
CCCCNC(=O)CN1CCN(Cc2cccc(OCC)c2OC)CC1	88*	86*	7	-6
O=C(Nc1ccc(Cl)cc1)c1cc2ncc(Br)cn2n1	101	102	-6	-5
O=C(O)CCC1=NNC(=O)CC1	100	103	11	-4
O=C(/C=C/c1cn(-c2ccccc2)nc1-c1cccs1)NCc1ccccc1	102	102	.	6
C(=N\n1cnnc1)/c1ccc(OCc2ccccc2)cc1	99	100	-15	3
Cc1oc2ccc(NS(=O)(=O)c3cccc4cccnc34)cc2c1C(=O)OC(C)C	101	101	11	-1
COc1ccc(CNn2cnnc2SCc2ccc(F)cc2)cc1OC	100	101	-10	-6
COC(=O)/C(C#N)=C/c1ccc(C)o1	102	104	-70	1
COC(CNC1CCCc2c1[nH]c1ccc(C)cc21)OC (configuration not stated)	101	102	15	21
CCOc1ccc(-c2nnc(NC(=O)Nc3ccccc3)o2)cc1	103	110	-5	-31
C/C(=N\NC(N)=S)C1CC2CCC1C2 (configuration not stated)	100	107	-7	15
O=C(OCc1cc(F)cc2c1OC(c1ccccc1)OC2)c1ccco1 (configuration not stated)	106	108	-10	-13
O=C(CCCCl)NCc1cccnc1	102	104	.	-17
c1ccc(-n2nnnc2Oc2ccc(-n3ccnc3)cc2)cc1	105	105	-22	-12
Cc1oc(-c2ccccc2)nc1C(=O)OCc1cc(=O)oc2cc3c(cc12)CCC3	103	103	-8	-12
c1cc(CN2CCCCC2)n(-c2nnc(N3CCCCCC3)s2)c1	102	103	-4	16
Cc1cccc(N2CCN(CC(=O)NCC(F)(F)F)CC2C)c1 (configuration not stated)	101	106	9	2
NC(=O)c1ccccc1NC(=O)Cc1c(F)cccc1Cl	103	104	10	-120
Cc1ccccc1NC(=O)c1cc2cccc3c2n1CC(C)S3 (configuration not stated)	102	101	-21	170
Cc1ccc(CN2CCN(CC(=O)NCc3ccc4c(c3)OCO4)C2=O)cc1	105	106	-8	-4
CC1Cc2ccccc2N1C(=O)Nc1cccc(F)c1 (configuration not stated)	101	105	-25	-26
CCCC(=O)Nc1cccc(-c2nc3ccccc3c(=O)o2)c1	103	101	-67	-1
Cc1ccc(Cn2ccsc2=NC(=O)CSc2nnc(-c3ccc4c(c3)OCO4)o2)cc1	102	107	2	-6
CCN(Cc1nc(-c2cccc(C)c2)no1)C(=O)c1ccc(Br)o1	101	102	-48	14

(next part)
SMILES	Polio RdRp inh	Polio RdRp inh intensity	MenB inh	MbtI inh
COc1ccc(S(=O)(=O)N(CCC(=O)O)Cc2ccco2)cc1OC	104	111	2	-9
O=C1NC(Cc2ccccc2)C(=O)N1c1ccccc1 (configuration not stated)	103	102	-3	-1
CC(=O)NC1=NN(C(C)=O)C2(CCCC2)S1	100	104	-2	4
COc1cccc(C2C(C(=O)c3ccccc3)=C(C)Nc3nc4ccccc4n32)c1 (configuration not stated)	110	116	-15	.
COc1ccc(OC)c(NC(=O)c2cc3cccc4c3n2CC(C)S4)c1 (configuration not stated)	102	104	-15	21
Cc1ccc(C(c2c(O)[nH]c(=S)[nH]c2=O)N2CCCCC2)cc1 (configuration not stated)	100	94	-74	41
CCCCn1c(-c2cccs2)nc2ccccc21	100	102	15	116
O=C(CN1CCN(c2ccc(C(F)(F)F)cn2)CC1)NC1CCCc2ccccc21 (configuration not stated)	103	107	-7	2
O=c1[nH]c2ccccc2n1CN1CCOCC1	110	124	-11	5
O=C(NCCn1cnc2cccnc21)N(c1ccccc1)c1ccccc1	98	109	-18	-2
Cn1cccc1Cc1nnc(SCC(=O)Nc2ccccc2C(F)(F)F)n1-c1ccc(F)cc1	102	97	-14	3
O=C(CCc1cn(Cc2ccccc2Cl)c2ccccc12)N1CCc2ccccc21	105	108	-5	-6
CCOC(=O)C1=C(C)N(C(=O)Oc2ccccc2)C(SC)=NC1c1ccccc1 (configuration not stated)	113	102	1	-6
Cc1csc(SCC(=O)NC(=O)Cc2ccccc2)n1	105	110	6	1
Cc1cc(C(=O)COC(=O)c2ccc3c(=O)n4c(nc3c2)CCCCC4)c(C)n1C1CC1	105	105	0	15
C=CCOc1ccc(/C(O)=C2\C(=O)C(=O)N(CCCN3CCOCC3)C2c2ccc(OC)c(OC)c2)c(C)c1 (configuration not stated)	101	101	6	6
CC(C)=CC(=O)Nc1ccc(Cl)cc1	104	100	-10	.
CC(NC(=O)CCN1CCOCC1)C1COc2ccccc2O1 (configuration not stated)	101	102	6	8
Cc1noc(C)c1S(=O)(=O)NC1CCCCCC1	101	105	-14	-5
Cc1cc(C)c2c(NCc3ccc(N4CCCCC4)cc3)n[nH]c2n1	101	101	1	26
Cc1cc(NC(=O)C2CCCCC2C(=O)O)no1 (configuration not stated)	101	104	4	-14
COC(=O)c1cc(COC(=O)c2ccc(OC(F)(F)F)cc2)oc1C	103	101	-15	-3
Cc1ccc(-c2cn3nc(N4CCCC(C(=O)Nc5cc(C)cc(C)c5)C4)sc3n2)cc1 (configuration not stated)	100	103	6	-14
CCC(=O)Nc1c(C(=O)N(CCN(C)C)Cc2ccco2)oc2ccccc12	100	100	-11	110
CCN1CCN(C(=O)c2ccc(S(=O)(=O)Nc3ccc(OC)cc3)cc2)CC1	91	93	-16	-4
Cc1cc(-c2csc(NC(=O)CN3C(=O)C4C5C=CC(C5)C4C3=O)n2)c(C)n1-c1ccccc1 (configuration not stated)	107	107	-24	-5
CCn1cc(C2=NOC(C(=O)NC3CCCC3)C2)c(C)n1 (configuration not stated)	101	103	2	-9
Cc1ccccc1NC(=O)C1C(c2cccs2)C(C#N)=C(SCC(N)=O)NC1(C)O (configuration not stated)	104	102	-15	-12
N#CC(C#N)=Cc1cn(Cc2ccccc2)c2ccccc12	101	103	-52	0
Cc1ccc(SCc2[nH]nc3c2C(c2ccoc2)C(C#N)=C(N)O3)cc1 (configuration not stated)	103	101	-54	8
CCn1c(N)c(C(=O)CSc2ncccn2)c(=O)[nH]c1=O	114	129	-20	-3
CC(=O)NS(=O)(=O)c1ccc(NC(=O)c2ccco2)cc1	99	103	22	14
